From PubChem
VDR inhibitor: blocks the human vitamin D receptor | VDR-SRC2-3 peptide fluorescence polarization, 2 h | Potency, µM, inactives show max response, negative = inhibition, hits mostly inhibitors | 400,000 compounds, 0.93% hits | AID 504847; active means well fitted inhibition curve with a large enough effect; inconclusive means small, poorly fitted or top-dose-only effect, or another doubt; inactive means no such curve, though single readings can be large or run the other way; further: series mostly up to about 120 µM
Target sequence (P11473 whole entry, looked up): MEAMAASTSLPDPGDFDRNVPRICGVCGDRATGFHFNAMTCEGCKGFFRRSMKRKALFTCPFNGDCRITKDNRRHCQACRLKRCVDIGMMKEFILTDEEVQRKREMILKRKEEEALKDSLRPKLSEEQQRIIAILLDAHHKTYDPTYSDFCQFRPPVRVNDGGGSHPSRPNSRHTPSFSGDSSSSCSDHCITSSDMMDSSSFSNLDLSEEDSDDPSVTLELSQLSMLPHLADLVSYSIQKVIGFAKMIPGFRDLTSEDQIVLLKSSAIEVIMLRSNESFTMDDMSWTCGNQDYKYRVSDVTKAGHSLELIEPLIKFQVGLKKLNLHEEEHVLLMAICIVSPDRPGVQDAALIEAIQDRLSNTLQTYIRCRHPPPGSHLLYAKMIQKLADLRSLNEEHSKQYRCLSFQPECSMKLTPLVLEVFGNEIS
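Fluorescence polarization assay of small-molecule disruption of VDR binding to coregulator peptide SRC2-3. Compounds and controls pin-transferred, then read after 2 h incubation at ambient room temperature.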
* marks the source's active call; other numbers are inactive results; ? = inconclusive; & = joins results of further samples. On the % scale 0 is the no-effect control and ±100 the full control effect; potency means the concentration at half of the fitted maximal effect. A portion of the library. The share of hits here may be higher or lower than overall.

SMILES	VDR inhibitor
Cc1ccccc1N1CC(C(=O)Nc2nnc(SCCC3OCCO3)s2)CC1=O (stereo not given)	?
COc1ccc(-c2nc3scc(CCNS(=O)(=O)c4c(C)cc(C)cc4C)n3n2)cc1OC	23%
CCOC(=O)c1c(NC(=O)COC(=O)Cc2ccccc2[N+](=O)[O-])sc(C(=O)N(C)C)c1C	6%
O=C1c2ccccc2C(Nc2ccc(Cl)cc2)N1CCN1CCOCC1 (stereo not given)	-4%
Cc1ccc(N2CC(C(=O)Nc3cc(C)on3)CC2=O)cc1 (stereo not given)	10%
Cc1ccc(C)c(N2CCN(C(=O)Cn3c(-c4cccs4)cc4ccccc43)CC2)c1	15%
COc1ccc(S(=O)(=O)N2CCOC23CCN(S(=O)(=O)c2c(C)cc(C)cc2C)CC3)cc1	0%
CCOC(=O)c1c(C)[nH]c(C)c1S(=O)(=O)N(C)CC(=O)Nc1cccc(C(F)(F)F)c1	7%
COc1ccccc1N(CCOc1ccccc1)S(=O)(=O)c1ccccc1	-4%
O=C1CCc2cc(S(=O)(=O)NCc3ccccc3Cl)ccc2N1	-14%
CCCC(O)(CCN1CCCCC1)c1ccc(OCC)cc1 (stereo not given)	-25%
Cc1ccnc(NC(=O)CNC(=O)c2ccc(Br)o2)c1	-2%
CCCCC(=O)NC(c1ccco1)c1c(O)ccc2ccccc12 (stereo not given)	0%
O=S(=O)(NC1=NCCCCC1)c1ccc2sc(NS(=O)(=O)c3ccc4ccccc4c3)nc2c1	?
O=C(NN=C1CCCC1)NC1CCCCC1	-27%
CCCCn1c(N)c(N(CC(C)C)C(=O)CSc2nn(-c3ccc(F)cc3)c(=S)s2)c(=O)[nH]c1=O	1%
CCOc1ccccc1C(=O)N/N=C/c1c[nH]c2ccccc12	0%
Cc1ccc(S(=O)(=O)NCCc2cn3c(C)csc3n2)cc1	6%
Cc1noc(C)c1C(=O)OCC(=O)Nc1cccc(S(N)(=O)=O)c1	-2%
O=C1C2C3C=CC(C3)C2C(=O)N1c1ccc2c(c1)CCC2 (stereo not given)	-8%
COc1ccccc1CNC(=O)c1ccccc1NC(=O)c1nsc2ccccc12	12%
CN(CC(=O)Nc1ccc(Cl)c(Cl)c1)C(=O)C1CCC1	-3%
O=C(CSc1nc(N2CCOCC2)nc(N2CCOCC2)n1)Nc1ccc([N+](=O)[O-])cc1	-12%
Cc1ccc(CCNC(=O)CCS(=O)(=O)Cc2ccc(C)cc2)cc1	8%
O=C(Nc1cccc(F)c1)C1CCN(C(=O)NCc2ccccc2)CC1	-5%
CNC(=O)c1ccc(NC(=O)CC2SC(N3CCCC3)=NC2=O)cc1 (stereo not given)	-15%
CCN(c1ccc(OC)cc1)S(=O)(=O)c1nnc(NC(=O)c2ccccc2C)s1	10%
CS(=O)(=O)N1CCN(c2ccc(NC(=O)c3cccnc3Cl)cc2)CC1	9%
COc1ccccc1C(=O)N/C(=C/c1ccc(Br)cc1)C(=O)N1CCCC1	7%
COc1ccc(C(=O)NCCOc2ccccc2Cl)c(OC)c1OC	1%
O=C(COC(=O)c1n[nH]c2ccccc12)NC(=O)NC12CC3CC(CC(C3)C1)C2	1%
COCCCn1c(C23CC4CC(CC(C4)C2)C3)n[nH]c1=S	-7%
CCCc1ncc(C(O)c2ccccc2OC)n1C (stereo not given)	-2%
COc1ccc(-c2cc(=O)oc3cc(OCc4nn[nH]n4)ccc23)cc1	-11%
NS(=O)(=O)c1ccc(NC(=O)CNC(=O)c2ccc3c(c2)OCO3)cc1	-22%
O=C(Cn1c(-c2cccs2)cc2cc(F)ccc21)N1CCCCC1	19%
O=C(N/N=C/c1cn(-c2cccs2)nc1-c1ccccc1)c1ccc(O)cc1	3%
CCCc1cc(=O)[nH]c(SCC(=O)Nc2cc(S(=O)(=O)N3CCCCC3)ccc2C)n1	-13%
CN(C(=O)CC1C(=O)NCCN1Cc1cccc(F)c1F)C1CCOCC1 (stereo not given)	0%
C/C(=N\NC(=O)c1c(Br)c(C)nn1C)c1ccc(NC(=O)C(C)Oc2ccc(Cl)cc2C)cc1 (stereo not given)	11%
Cc1ccc2[nH]c(=O)c(CN(Cc3ccccc3)Cc3nnnn3Cc3ccco3)cc2c1	-17%
O=C(COc1ncnc2cc([N+](=O)[O-])ccc12)NC(=O)NC1CCCCC1	-18%
N#Cc1cccc(-c2nc3cnc(N4CCOCC4)nc3n(C3CC3)c2=O)c1	6%
Cc1cc(Nc2cccc(F)c2)n2c(n1)nc1ccccc12	11%
COc1ccccc1C1C(C(=O)Nc2ccccc2)=C(C)Nc2nc(-c3ccccc3)nn21 (stereo not given)	-15%
CNC(=S)Nc1ccc(C(N)=O)cc1	-5%
CCOC(=O)c1c(/N=C/c2cc(C)ccc2O)sc2c1CCC2	-13%
CC1CCC2C(=O)N(c3ccccc3OC(=O)c3ccccc3F)C(=O)C2C1 (stereo not given)	-8%
COc1cccc(CNC(=O)COC(=O)CCS(=O)(=O)c2ccc(C)cc2)c1	-12%
CN(C(=O)c1ccc(NC(=O)Cc2cccc(NC(=O)C3CCN(C(=O)C4CCCC4)CC3)c2)cc1)C1CCCC1	-11%
CC(C(=O)O)N1C(=O)c2ccccc2C1=O (stereo not given)	5%
COc1ccc(-n2c(=O)c3c4c(sc3n3c(=S)[nH]nc23)CCCC4)cc1	11%
O=C(NCc1ccc2c(c1)CCN2C(=O)c1ccncc1)c1cccc(F)c1	-4%
CCN(CC)S(=O)(=O)c1csc(C(=O)Nc2ccccn2)c1	-10%
O=C(Nc1cccc(Cl)c1Cl)c1ccccc1NC(=O)C1CC=CCC1C(=O)O (stereo not given)	11%
COCc1c(C(=O)Nc2nc(C)cs2)oc2ccccc12	-13%
CC(C)c1ccc(OCC(=O)Nc2cc(-c3nc4ncccc4o3)ccc2Cl)cc1	13%
COc1ccc(N2C(=O)C3C4C=CC(C4)C3C2=O)c([N+](=O)[O-])c1 (stereo not given)	0%
CN(C(=O)CSc1nncc2ccccc12)C1CCCCC1	-1%
O=C(CSc1nc2c(c(=O)n1-c1ccc(F)cc1)SCC2)NCc1ccco1	15%

(list continues)
SMILES	VDR inhibitor
N#Cc1c(N)nc2c(c1N)CC(=O)N2c1ccc(Cl)cc1	3%
Cc1cnc(NC(=O)CSc2nnc(COc3ccccc3)o2)s1	6%
c1ccc(C2(CN3CCNC[C@@H]3CC3CCCCC3)CC2)cc1	-4%
O=C(NCC(c1ccccc1)N1CCCC1)C1CCN(C(=O)Nc2ccccc2)CC1 (stereo not given)	-12%
COc1ccc(CN2CCNC(=O)C2CC(=O)N(C)CCCN2CCOCC2)cc1C (stereo not given)	-8%
O=C(CSc1nc2ncccc2[nH]1)c1ccc(F)cc1	0%
Cc1cccc(OC(=O)c2cncc(Br)c2)c1	-16%
CCOC(=O)Nc1nnc(/C=C/c2ccc(OC)cc2)s1	-9%
Cc1ccc(S(=O)(=O)Nc2cccc3ncccc23)s1	-15%
COc1ccc(C(=O)N2CCCC(C(=O)N3CCN(c4ccccc4)CC3)C2)cc1 (stereo not given)	1%
O=S1(=O)c2c(F)cccc2O[C@@H](COCc2ccccc2)CN1CCc1ccc(F)cc1	-15%
O=C1NCC(=O)N2CCC[C@@H]12	-21%
O=C(Nc1nc(-c2ccc3c(c2)OCCO3)cs1)c1ccc(S(=O)(=O)N2CCCCC2)cc1	1%
CC(=O)N(C)Cc1ccc(C(=O)CCl)cc1	-19%
CC(C)CC(N)C(=O)OCc1ccc([N+](=O)[O-])cc1 (stereo not given)	-11%
Cc1nc2c(F)c(F)c(C(F)(F)F)c(F)c2[nH]1	1%
O=C(COC(=O)CN1C(=O)C2CCCCC2C1=O)Nc1ccc(F)c(F)c1F (stereo not given)	-6%
Cc1ccc(/C=N/NC(=O)c2ccc3nc[nH]c3c2)s1	-7%
CC(C)c1cc[n+](-c2nc([O-])sc2C=O)cc1	13%
CC(O)c1nc2ccccc2n1CCCc1ccccc1 (stereo not given)	8%
Cc1ccc(S(=O)(=O)Nc2ccc3nc(-c4ccc(F)cc4)oc3c2)cc1	2%
Cc1ccc(NC(=O)CN2C(=O)NC(Cc3ccccc3)C2=O)cc1Cl (stereo not given)	-5%
O=C(COc1ccc(Cl)cc1Cl)OCC(=O)N1CCCc2ccccc21	13%
COC(=O)c1ccc(Cn2cnc3c(Cl)ncnc32)cc1	1%
c1ccc(NC2=NCCN2CC2CCCCCC2)cc1	-21%
CCn1c(CC(=O)Nc2ccccc2)nnc1SCC(=O)N1CCOCC1	-12%
COc1ccc(C(=O)Nc2cc3c4c(c2)CC(=O)N4CCC3)cc1	10%
CCOc1ccc(/C=C/C(=O)Nc2sc3c(c2C(=O)OC)C(C(=O)OC)CC3)cc1 (stereo not given)	22µM*
COCCN1C(=O)c2[nH]nc(-c3cc(C)ccc3O)c2C1c1ccc(C(C)C)cc1 (stereo not given)	8%
COc1ccc(N2CCN(S(=O)(=O)CCNC(=O)c3ccco3)CC2)cc1	-11%

In the list so far, these contain a Cl atom:
SMILES	VDR inhibitor
O=C1c2ccccc2C(Nc2ccc(Cl)cc2)N1CCN1CCOCC1 (stereo not given)	-4%
O=C1CCc2cc(S(=O)(=O)NCc3ccccc3Cl)ccc2N1	-14%
CN(CC(=O)Nc1ccc(Cl)c(Cl)c1)C(=O)C1CCC1	-3%
CS(=O)(=O)N1CCN(c2ccc(NC(=O)c3cccnc3Cl)cc2)CC1	9%
COc1ccc(C(=O)NCCOc2ccccc2Cl)c(OC)c1OC	1%
C/C(=N\NC(=O)c1c(Br)c(C)nn1C)c1ccc(NC(=O)C(C)Oc2ccc(Cl)cc2C)cc1 (stereo not given)	11%
O=C(Nc1cccc(Cl)c1Cl)c1ccccc1NC(=O)C1CC=CCC1C(=O)O (stereo not given)	11%
CC(C)c1ccc(OCC(=O)Nc2cc(-c3nc4ncccc4o3)ccc2Cl)cc1	13%
N#Cc1c(N)nc2c(c1N)CC(=O)N2c1ccc(Cl)cc1	3%
CC(=O)N(C)Cc1ccc(C(=O)CCl)cc1	-19%
Cc1ccc(NC(=O)CN2C(=O)NC(Cc3ccccc3)C2=O)cc1Cl (stereo not given)	-5%
O=C(COc1ccc(Cl)cc1Cl)OCC(=O)N1CCCc2ccccc21	13%
COC(=O)c1ccc(Cn2cnc3c(Cl)ncnc32)cc1	1%

(continued)
SMILES	VDR inhibitor
CC(=O)c1cccc(NC(=O)c2ccc(N(C)S(C)(=O)=O)cc2)c1	4%
C=C(C)C(=O)c1ccc(OC)cc1	8%
O=c1c2ccccc2nc(-c2cccs2)n1-c1cccc2ccccc12	-3%
C=CCOn1c(=O)c(-c2ccc(Br)cc2)[n+]([O-])c2ccccc21	-3%
COC(=O)CN1C(=O)CC(C)(C)S(=O)c2ccccc21 (stereo not given)	-8%
COc1ccc(C(=O)NC2(C(F)(F)F)C(=O)NC(C)=C2C#N)cc1 (stereo not given)	-9%
Cc1nnc2ccc(-c3cccc(NC(=O)Cc4cccs4)c3)nn12	10%
CCCn1cnnc1CNC(=O)C1CCC(=O)N(CCCc2ccccc2)C1 (stereo not given)	9%
Cc1[nH]n(-c2ccc([N+](=O)[O-])cc2)c(=O)c1C=NCCc1c(C)[nH]c2ccccc12	-13%
Cn1nc(C(F)(F)F)c(-c2ccc(F)cc2)c1NC(=O)c1cccnc1	?
COc1cccc(-c2ccc(=O)n(CC(=O)Nc3ccc(C(=O)N4CCCC4)cc3)n2)c1	-1%
Cc1ccccc1-n1c(SCc2cc(=O)n3ccccc3n2)nc2[nH]ncc2c1=O	-7%
COC(=O)c1ccc(/C=C(\C#N)c2nc3ccccc3s2)cc1	3%
CCCCN(C)C(=O)c1nc2ccccn2c1CN1CCN(c2ncccn2)CC1	18%
O=C(CSc1nnc(CNc2ccc(F)cc2)n1CC1CCCO1)N1CCOCC1 (stereo not given)	10%

A second format for 2 compounds above:
mol | VDR inhibitor
Cn1nc(C(F)(F)F)c(-c2ccc(F)cc2)c1NC(=O)c1cccnc1 | ?
COc1cccc(-c2ccc(=O)n(CC(=O)Nc3ccc(C(=O)N4CCCC4)cc3)n2)c1 | -1%

Next compounds.
SMILES	VDR inhibitor
CCCCCOC(=O)Cn1c(=O)oc2ccc(C)cc21	-7%
CON(c1nc(Cl)nc(N(C)C)n1)S(=O)(=O)c1ccccc1Cl	3%
COc1cccc(NC(=O)Cc2nnc(SCCOc3ccccc3)n2C)c1	11%
Cn1c2c(c(=O)c3ccccc31)CCCC2	4%
CCc1nc2ccc(C(=O)NCCc3ccccc3OC)cc2nc1CC	-3%&-2%
COC(=O)C1=NN(c2ccccc2)C2(S1)SC(C(C)=O)=C(C)N2c1ccccc1 (stereo not given)	-7%
NC(N)=NS(=O)(=O)c1ccc(NC(=S)NC(=O)c2ccc3c(c2)OCO3)cc1	1%
Cc1ccc(C(=O)Cn2c(C(=O)O)cc3ccccc32)cc1	-8%
Cc1ccc(C)c(SCC(=O)NC2CCS(=O)(=O)C2)c1 (stereo not given)	-4%
Cc1ccc(CSc2nnc(-c3cccs3)n2C)cc1	-3%
CC1(C)SCC2C(=O)N3C(CSC3(C)C)C(=O)N21 (stereo not given)	0%
CSc1nc(C)c(CCOC(=O)c2cccc(Cl)c2)c(=O)[nH]1	5%
c1ccc(-n2nnnc2OCCOc2nnnn2-c2ccccc2)cc1	1%
CC(C)c1ccc(NC(=O)C2CCN(S(=O)(=O)c3ccc4c(c3)NC(=O)CO4)CC2)cc1	-8%
NC1=NC(=O)C2(COC(c3ccccc3Cl)OC2)S1 (stereo not given)	-1%
Cc1ccc(-n2c3c(cc(-c4nc(-c5ccc(Cl)cc5)cs4)c2=O)C(=O)CC(C)(C)C3)cc1C	-8%
COc1cc(C(=O)NCc2nnc(SCC(=O)c3ccc(Cl)cc3)o2)cc(OC)c1OC	-5%
O=C(N/N=C/C=C/c1ccco1)c1ccncc1	?
C/C(Cn1nnc2ccccc21)=N\NC(=O)c1cccc(Br)c1	1%
CCCOc1ccc(/C=N/Nc2ccc(C(=O)O)cc2)c(OCCC)c1	13%
CCN(CC(=O)N1CCOCC1)S(=O)(=O)c1ccc(C)cc1	-5%
Cc1ccc(C)c(C(=O)CSc2nc3ccccc3c(=O)[nH]2)c1	13%
